Compound activity: PubChem BioAssay, National Center for Advancing Translational Sciences (NCATS)
gsp ag – agonists of gsp mutant (McCune-Albright syndrome); gsp mutant cells, cAMP HTRF, 30 min; control for the full effect not named in the record; Potency, µM (highest dose often 76.9 µM), for the others: at the highest dose activation (cAMP increase), actives largely listed as activators; 0.13% of 340,000 active; AID 624287; active = well fitted activation curve with a large enough effect; inconclusive = small, poorly fitted or top-dose-only effect, or another doubt; inactive = no such curve, though single readings can be large or run the other way; cell line not stated here;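 further: phosphodiesterase inhibitor Ro 20-1724 added with compounds to block cAMP breakdown; nearly all actives have a fitted effect of over 60% in size; about a fifth of the inactives were tested at one dose only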
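Cells in DMEM/10% FBS with G418 were pretreated with compounds in DMSO plus […] (300 uM stock) for 30 min at 37C. cAMP was measured by HTRF (cAMP-d2 plus anti-cAMP antibody-K) after 30 min at room temperature.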
ClpP mod – qHTS Assay for Activators of ClpP. ATP-dependent Clp protease proteolytic subunit (Bacillus subtilis (strain 168)), P80244. purified B. subtilis ClpP, FRET peptide cleavage, 20 min. Potency, µM (highest dose often 57.5 µM), for the others: at the top dose activity change, negative = active. 1.9% of 340,000 active. AID 651965, 2013; active = well fitted falling curve with a large enough effect; inconclusive = small, poorly fitted or top-dose-only effect; inactive = no such curve, though single readings can be large or run the other way; further: the source files actives as falling curves though it sought activators and does not explain the sign; nearly all actives have a fitted effect of over 65% in size; many hits overshoot -100%
Target sequence (P80244 whole entry, looked up): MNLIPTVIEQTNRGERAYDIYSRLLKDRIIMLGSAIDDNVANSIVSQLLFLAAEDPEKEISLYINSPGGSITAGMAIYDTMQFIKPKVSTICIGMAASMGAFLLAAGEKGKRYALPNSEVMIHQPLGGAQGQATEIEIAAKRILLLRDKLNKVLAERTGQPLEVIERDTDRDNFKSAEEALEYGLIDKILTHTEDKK
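Purified B. subtilis ClpP, 10 microg/mL final in Tris/HCl pH8 with KCl, BSA, glycerol and Tween-20, cleaved an Abz/nitrotyrosine-quenched decapeptide. Fluorescence (ex 320, em 430) was read at 0 and 20 min at room temperature. Delta was normalized to 5.8 microM ADEP and DMSO/no-enzyme controls.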
Starred values were filed as active, the others as inactive; ? = inconclusive; [ ] = remark or other dose. Potency means the concentration at half of the fitted maximal effect. These rows are one share of the data; count on the stated rates, not on these rows.

Screens in order: gsp ag | ClpP mod
C[C@H](CO)NC(=O)c1[nH]cnc1C(=O)Nc1cccc(Cl)c1
    20% | -2.0%
C[C@@H]1CN([C@H](C)CO)C(=O)c2c(c3ccccc3n2C)-c2ccccc2CO[C@H]1CN(C)C(=O)c1cc(Cl)cc(Cl)c1
    14% | -4.1%
COCOCCn1cc(CN2CCS(=O)(=O)N(Cc3ccc(-c4ccc(F)nc4)cc3)C(C)C2=O)nn1 (stereo not drawn)
    -65%[inhibitor] | 0.6%
CSc1ncnc2c1ncn2CCCNCC1CCCCC1
    -41%[inhibitor] | -2.8%
CN1CCn2cnc(C(=O)N3CCN(c4ccccc4)CC3)c2C1=O
    34% | -1.2%
CCCNC(=O)N(C)C[C@@H]1Oc2ncc(-c3ccncc3)cc2C(=O)N([C@H](C)CO)C[C@@H]1C
    11% | -11%
CC(C)C1C(=O)N(Cc2cn(CCC3OCCO3)nn2)CCS(=O)(=O)N1Cc1ccc(-c2ccccc2)cc1 (stereo not drawn)
    15% | -2.1%
CCN(CC)C(=O)C1=C(C)N(Cc2ccc(OC)cc2)C(=O)C(CC(=O)NCCCN(C)C)C1 (stereo not drawn)
    ? | 1.9%
C[C@@H](CO)NC(=O)c1[nH]cnc1C(=O)Nc1cccc(Cl)c1
    3% | -2.9%
CSC[C@H]1CN(c2ccc(Br)cc2)C(=O)[C@@H]1CC(=O)Nc1ccc(Br)cc1
    4% | 0.3%
C[C@H](CO)N1C[C@H](C)[C@H](CN(C)S(=O)(=O)c2ccccc2F)OCc2cnnn2CCCC1=O
    21% | -1.1%
Cc1ccc([C@H]2C[C@H](O)[C@@H](n3cc(-c4ccc(F)cc4)nn3)CN2Cc2cccs2)cc1
    ? | -2.8%
COc1ccc([C@H]2C[C@H](n3cc(-c4ccc(F)cc4)nn3)[C@@H](O)CN2Cc2cccs2)cc1
    -4% | -1.0%
O=C(OCc1cn([C@@H]2C[C@H](c3ccccc3)N(Cc3cccs3)C[C@H]2O)nn1)c1ccccc1
    -24% | 5.8%
CCN(CC)C(=O)C1=C(C)N(Cc2ccc(F)cc2)C(=O)C(CC(=O)NCCCN(C)C)C1 (stereo not drawn)
    3% | 0.1%
CCCCCCN1C[C@H](O)[C@@H](n2cc(C3CC3)nn2)C[C@@H]1c1ccc(C)cc1
    -24% | -0.7%
Cc1ccc(-c2cnc3c(c2)C(=O)N([C@H](C)CO)C[C@@H](C)[C@@H](CN(C)C(=O)Cc2ccccc2)O3)cc1
    26% | -24%
CC(=O)N1CCOc2ccc(S(=O)(=O)NC[C@H]3O[C@@H](n4ccc(N)nc4=O)[C@H](O)[C@@H]3O)cc21
    ? | -2.6%
CCCC1NC(=O)c2cc3ccccc3cc2-n2c1nc1ccc(F)cc1c2=O (stereo not drawn)
    24% | -8.1%
CC1C(=O)N(Cc2cn(CCC3OCCCO3)nn2)CCS(=O)(=O)N1Cc1ccc(-c2ccc(F)cc2)cc1 (stereo not drawn)
    0% | 0.3%
O=C(C[C@H]1C[C@H]2c3cc(NS(=O)(=O)c4ccc(F)cc4)ccc3O[C@H]2[C@H](CO)O1)NCc1ccncc1
    18% | 0.7%
C[C@@H]1CN([C@@H](C)CO)C(=O)CCCn2cc(nn2)CO[C@H]1CN(C)S(=O)(=O)c1ccc(-n2cccn2)cc1
    14% | -1.0%
COc1cccc(S(=O)(=O)N(C)C[C@@H]2Oc3cc(C#CCN(C)C)ccc3S(=O)(=O)N([C@H](C)CO)C[C@@H]2C)c1
    -15% | -1.1%
C[C@H](CO)N1C[C@H](C)[C@@H](CN(C)C(=O)c2cnccn2)Oc2cc(C#CCC3CCCC3)ccc2S1(=O)=O
    27% | 1.1%
C[C@H](CO)N1C[C@H](C)[C@@H](CN(C)C(=O)C2CCOCC2)Oc2ncc(Br)cc2C1=O
    ? | 0.6%
Cc1cccc(NC(=O)c2ncn3c2C(=O)NC[C@@H]3C)c1
    -5% | 0.2%
COc1ccc([C@H]2CN(c3ccc(OC)cc3)C(=O)[C@@H]2CC(=O)Nc2ccccc2)cc1
    0% | 1.4%
C[C@H]1CN([C@@H](C)CO)S(=O)(=O)c2ccc(Br)cc2O[C@@H]1CN(C)S(=O)(=O)c1ccccc1
    -14% | -1.1%
CCN(CC)C(=O)C1=C(C)N(Cc2ccc(F)cc2)C(=O)C(CC(=O)NCC2CCCCC2)C1 (stereo not drawn)
    -1% | 0.6%
C[C@H]1CN([C@@H](C)CO)S(=O)(=O)c2ccc(C#CC3CC3)cc2O[C@H]1CN(C)C(=O)c1cccnc1
    35% | -0.2%
Nc1ccn([C@@H]2O[C@H](CNCc3cc(Cl)ccc3OCc3ccc(Cl)cc3)[C@@H](O)[C@H]2O)c(=O)n1
    15% | 1.5%
CCN1C(=O)[C@H]2[C@@H](c3ccccc3)N[C@]3(CCCN(Cc4ccc(C)cc4)C3=O)[C@H]2C1=O
    5% | 0.8%
CCN(CC)C(=O)C1=C(C)N(Cc2ccc(C(C)(C)C)cc2)C(=O)C(CC(=O)NCCc2ccccn2)C1 (stereo not drawn)
    1% | 0.6%
C[C@@H]1CN([C@@H](C)CO)C(=O)CCCn2nncc2CO[C@@H]1CN(C)C(=O)c1ccccc1
    ? | -0.8%
COc1ccc(N2C[C@H](C)[C@@H](CC(=O)Nc3ccccc3)C2=O)cc1
    20% | -0.5%
C[C@@H]1Cn2cnc(C(=O)Nc3cccc(Cl)c3)c2C(=O)N1
    1% | -0.4%
C[C@@H]1CN([C@@H](C)CO)C(=O)c2cc(Br)cnc2O[C@@H]1CN(C)C(=O)Nc1ccc(F)cc1
    25% | -6.6%
Cc1ccc(S(=O)(=O)N2C[C@@H](C)[C@]3(C2)[C@H](O)[C@H](OC(=O)Nc2c(C)noc2C)C[C@H]2C(=O)N(c4ccccc4)C(=O)[C@H]23)cc1
    -36%[inhibitor] | 2.3%
CCOC(=O)CCCCCC(=O)Nc1ccc2c(c1)C(=O)N([C@@H](C)CO)C[C@@H](C)[C@H](CN(C)S(=O)(=O)c1cccs1)OCCCC[C@H](C)O2
    18% | 0.5%
C[C@H](NC(=O)c1nc[nH]c1C(=O)NC[C@@H](C)O)c1ccccc1
    -2% | -1.6%
CCCCN1C(=O)C(CC(=O)NCCCN(C)C)CC(C(=O)N(C)C)=C1C (stereo not drawn)
    ? | -0.3%
CSc1ncnc2c1ncn2CCCNCC1CCCO1 (stereo not drawn)
    5% | 1.1%
COc1cc(CNC[C@H]2O[C@@H](n3ccc(N)nc3=O)[C@H](O)[C@@H]2O)ccc1OCc1cccc(Cl)c1
    -31%[inhibitor] | 0.0%
O=C1NC(Cc2ccc(O)cc2)c2nc3ccc(F)cc3c(=O)n2-c2cc3ccccc3cc21 (stereo not drawn)
    9% | -5.5%
CC(C)NC(=O)N(C)C[C@H]1OCc2cnnn2CCCC(=O)N([C@H](C)CO)C[C@@H]1C
    -15% | -0.9%
C[C@@H]1CN([C@@H](C)CO)S(=O)(=O)c2ccc(Br)cc2O[C@@H]1CN(C)Cc1cccnc1
    4% | 1.0%
CC(C)C1C(=O)N(Cc2cn(CCC3OCCCO3)nn2)CCS(=O)(=O)N1Cc1ccc(-c2ccc(Cl)nc2)cc1 (stereo not drawn)
    -28% | -2.2%
O=C(CC1(O)C(=O)Nc2ccc(Br)cc21)c1ccccc1 (stereo not drawn)
    2% | 3.7%
COc1ncnc2c1ncn2CCCNCCCN1CCCC1=O
    26% | -0.7%
C[C@H](CO)N1C[C@H](C)[C@H](CN(C)Cc2ccccc2)Oc2ncc(Br)cc2C1=O
    11% | -3.2%
C#CCN(C[C@H]1[C@H](OC(=O)NC2CC2)[C@H](OC(=O)NC2CC2)C[C@H]2C(=O)N(c3ccccc3)C(=O)[C@@H]12)S(=O)(=O)c1ccc(C)cc1
    -40% | 0.8%
C[C@H](CO)N1C[C@H](C)[C@@H](CN(C)C(=O)c2ccccc2)OCc2cnnn2CCCC1=O
    29% | 1.5%
CSc1ncnc2c1ncn2CCCNCCc1ccccn1
    6% | -0.1%
COCOCCn1cc(CN2CCS(=O)(=O)N(Cc3ccc(-c4ccccc4)cc3)C(C(C)C)C2=O)nn1 (stereo not drawn)
    16% | -0.4%
O=C(c1ccoc1)N1CCN(c2cc(-c3cccnc3)nc3cc(-c4cccc(Cl)c4)nn23)CC1
    3% | 3.9%
CCCCN1C(=O)C(CC(=O)NC2CCCCC2)CC(C(=O)N(C)C)=C1C (stereo not drawn)
    -7% | 0.6%
CNC(=O)C[C@H]1C(=O)N(c2ccccc2)C[C@@H]1Cc1ccccc1
    -34% | 1.7%
CCC/C=C/c1ccc(CN2C(C)C(=O)N(Cc3cn(Cc4ccco4)nn3)CCS2(=O)=O)cc1 (stereo not drawn)
    8% | 1.0%
CCc1cc(-c2nnn(CCC3COCCO3)c2CC)ccc1-c1cn(Cc2ccccc2)nn1 (stereo not drawn)
    30% | 0.0%
C[C@H](CO)N1C[C@H](C)[C@@H](CN(C)S(=O)(=O)c2ccc3ccccc3c2)OCc2cn(nn2)CCCC1=O
    1% | 1.0%

(next part)
Screens in order: gsp ag | ClpP mod
Cc1ccccc1CN(C)C[C@@H]1OCc2cnnn2CCCC(=O)N([C@H](C)CO)C[C@H]1C
    -3% | -1.7%
O=C(OCc1cn([C@@H]2CN(CC3CCCCC3)[C@@H](c3ccccc3)C[C@H]2O)nn1)c1ccccc1
    -8% | 1.2%
CC(C)CC1C(=O)N(Cc2cn(CC3CCCCC3)nn2)CCS(=O)(=O)N1Cc1ccc(-c2ccc(Cl)cc2)cc1 (stereo not drawn)
    1% | -2.3%
CCCC#Cc1cnc2c(c1)C(=O)N([C@H](C)CO)C[C@@H](C)[C@@H](CN(C)C(=O)Nc1cccc(F)c1)O2
    -53%[inhibitor] | -16%
COc1ccc(NC(=O)N(C)C[C@@H]2OCc3cn(nn3)CCCC(=O)N([C@H](C)CO)C[C@H]2C)c(OC)c1
    -60%[inhibitor] | 1.3%
C[C@H]1CN([C@@H](C)CO)C(=O)CCCn2cc(nn2)CO[C@@H]1CN(C)C(=O)Nc1ccccc1
    23% | -2.6%
